# D2 PAM – potentiates the human D2 dopamine receptor allosterically; P14416; DiscoveRx D2 beta-arrestin cells, luminescence, 90 min; 100% = 57 uM dopamine signal; 0.23% of 360,000 active; potentiation, % (no concentration beside the values); active = potentiation of 50% or more; inconclusive = 30% to 50%; inactive = 30% or less;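 further: compound concentration not given in the record; tested on top of an EC20 dose of dopamine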
# Target sequence (P14416 whole entry, looked up): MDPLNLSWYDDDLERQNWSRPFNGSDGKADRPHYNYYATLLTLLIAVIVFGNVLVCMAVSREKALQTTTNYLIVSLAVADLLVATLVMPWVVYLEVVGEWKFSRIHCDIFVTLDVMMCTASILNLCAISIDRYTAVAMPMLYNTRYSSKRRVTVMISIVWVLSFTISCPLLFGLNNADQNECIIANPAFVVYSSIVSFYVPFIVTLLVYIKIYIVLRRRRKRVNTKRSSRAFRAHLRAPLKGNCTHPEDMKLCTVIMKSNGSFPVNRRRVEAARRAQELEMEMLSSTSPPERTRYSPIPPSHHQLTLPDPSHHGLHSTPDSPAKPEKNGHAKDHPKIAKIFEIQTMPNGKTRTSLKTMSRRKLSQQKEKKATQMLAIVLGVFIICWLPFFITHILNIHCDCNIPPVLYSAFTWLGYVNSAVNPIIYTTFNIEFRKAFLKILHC
#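 D2 cells co-treated with compound plus 50 nM dopamine (EC20) for 90 min at 37 deg C to detect potentiation. Beta-arrestin recruitment was read as enzyme-fragment luminescence after 1 h at ambient temperature. Full response was set by 57 uM dopamine.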
# gsp antagonist – gsp mutant antagonism; gsp-mutant cells, cAMP HTRF, 30 min; control for the full effect not named in the record; Potency, µM (titrated, usually from 76.9 µM), for the others: top-dose activity change, negative = inhibition, most hits filed as inhibitors; 0.4% of 340,000 active; active = falling curve of any shape with a large fitted effect; inconclusive = falling curve, mostly with a smaller effect; inactive = flat or rising curve; cell line not stated here;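 further: intracellular cAMP measured with PDE inhibitor Ro 20-1724 present during compound exposure; potency means the concentration at half of the fitted maximal effect; on the % scale 0 is the no-effect control and ±100 the full control effect; nearly all actives have a fitted effect of over 65% in size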
#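 Measurement of cellular cAMP by homogeneous time-resolved fluorescence following a 30 min compound exposure at 37C. The PDE inhibitor […] was present throughout; the assay buffer was DPBS with 0.05% BSA and 0.005% Tween 20.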
# gsp ag – agonists of gsp mutant (McCune-Albright syndrome); gsp mutant cells, cAMP HTRF, 30 min; control for the full effect not named in the record; Potency, µM (titrated, usually from 76.9 µM), without a hit: at the top dose activation (cAMP increase), usual class: activators; 0.13% of 340,000 active; active = well fitted activation curve with a large enough effect; inconclusive = small, poorly fitted or top-dose-only effect, or another doubt; inactive = no such curve, though single readings can be large or run the other way; cell line not stated here;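 further: phosphodiesterase inhibitor Ro 20-1724 added with compounds to block cAMP breakdown; potency means the concentration at half of the fitted maximal effect; nearly all actives have a fitted effect of over 60% in size; about a fifth of the inactives were tested at one dose only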
#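 Cells stably selected in G418 were plated at 2000/well, grown 16-24 hr, then given compounds in DMSO with the PDE inhibitor […] (300 uM solution added) for 30 min at 37C; cAMP was read by HTRF.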
# Six1-Eya2 inh – inhibitors of human Six1/Eya2 interaction. Q15475+O00167. AlphaScreen GST-Six1/His-Eya2 binding, biochemical; stronger effect = lower value; control for the full effect not named in the record. activity change, % (no concentration beside the values). 0.56% of 360,000 active. AID 651725; in the data active = activity change below about -65%; inconclusive = about -30% to -65%; inactive = above about -30%; further: on the % scale 0 is the no-effect control and ±100 the full control effect; compound concentration not given in the record
#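 GST-Six1 + His-Eya2 (5X stock: 250/500 nM); Tris pH 8.0, 300 mM NaCl, 0.05% BSA, 0.02% Tween 20; GSH donor/Ni acceptor beads; 1 h 37 °C dark; AlphaScreen readout.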
# D2 ag – human D2 receptor agonism in beta-arrestin assay. DiscoveRx PathHunter D2 beta-arrestin, luminescence, 90 min; 100% = 57 uM dopamine signal. 0.084% of 360,000 active. activation, % (test concentration not listed); in the data active = activation above about 40%; inconclusive = about 15% to 40%; inactive = below about 15%; further: compound concentration not given in the record; the text of the record calls up to 30% inactive
#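 Agonist mode: compounds alone added to overnight-plated D2 PathHunter cells for 90 min at 37 C, with 57 uM final dopamine (EC100) defining full response. Beta-arrestin recruitment detected by chemiluminescent reagent, read after 1 h at ambient temperature.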
# CtBP-E1A inh – blocks the CtBP interaction with E1A. 0.49% of 340,000 active. activity change, % (no concentration beside the values). AlphaScreen GST-E1A/His-CtBP binding, 1536-well; stronger effect = lower value; control for the full effect not named in the record. AID 651724; in the data active means activity change below about -65%; inconclusive means about -30% to -65%; inactive means above about -30%; further: on the % scale 0 is the no-effect control and ±100 the full control effect; compound concentration not given in the record
#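 Homogeneous bead-based format: GST-tagged E1A captured on glutathione donor beads, His-tagged CtBP on nickel acceptor beads; compounds precede bead addition by 2 h at 37 °C.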
# Starred values were filed as active, the others as inactive; ? = inconclusive; / = no result given; [ ] = remark or other dose.
# Values run as follows: D2 PAM, gsp antagonist, gsp ag, Six1-Eya2 inh, D2 ag, CtBP-E1A inh
CCCCn1c(CN(C)Cc2ccccc2)nc2c1c(=O)n(C)c(=O)n2C
    4, -27%, 17%, -3, -2.3, -1
O=C1c2ccc(Oc3ccc4c(c3)C(=O)N(CCCO)C4=O)cc2C(=O)N1CCCO
    24, -9%, 7%, 6, 0.6, 4
Clc1ccc(COn2c(-c3ccc(Cl)cc3)nc3ccccc32)cc1
    -7, -18%, 36%, 6, -4.2, 15
CCCOc1ccc(/C=C/C(=O)Nc2ccc([N+](=O)[O-])cc2C)cc1
    -2, 12%, -16%, 6, 0.1, 9
CCCNS(=O)(=O)/C=C/c1ccccc1
    -10, 9%, 22%[15.4 µM], -2, -5.8, -14
COc1ccccc1NC(=O)C1CCCN(S(=O)(=O)c2ccc(-n3cnnn3)cc2)C1 (centres undefined)
    -2, -5%, 3%, -3, 3.7, -7
CC1=C(c2ccc(C)cc2)[N+](=O)C(C)(C)N1[O-]
    1, 10%, -9%, 15, 2.2, 3
CC(=O)NS(=O)(=O)c1ccc(N=NN2CCCCCC2)cc1
    -8, -5%, -2%[15.4 µM], -4, 5.0, /
O=C(Cc1ccccc1)Nc1ccc(NC(=O)c2ccc(Br)cc2)cc1
    -24, -14%, 3%[15.4 µM], -10, -2.0, 11
Cc1ccc(Nc2nc3nonc3[nH]c2=O)cc1Cl
    -10, 28µM*, 10%, 1, 0.4, -1
Cc1cc(NC(=O)CSc2nnc(NC(=O)C3CC(=O)N(c4ccccc4C)C3)s2)no1 (centres undefined)
    -10, 11%, -18%, -7, -1.7, 4
Cc1ccccc1NC(=O)CSc1nnc(C)c2ccccc12
    -27, /, -3%[15.4 µM], 2, 1.1, -12
Cc1cc(C(F)(F)F)nc(SCCN2CCCCC2)c1C#N
    -12, -17%, -31%[15.4 µM], 0, -4.8, 7
CCC1CCCCN1CCCNC(=O)C1CCC(=O)N1Cc1ccc(C)cc1 (centres undefined)
    1, 12%, -7%, 7, -3.3, 6
CCC(C)(C(=O)NC1CCCC1)N(Cc1cccs1)C(=O)Cc1cccs1 (centres undefined)
    -11, 9%, 19%, 5, -2.6, 7
O=S1(=O)CC(O)C(Nc2ccccc2Cl)C1 (centres undefined)
    -5, 6%, -22%, 6, -1.2, 3
Cc1onc(-c2c(Cl)cccc2Cl)c1C(=O)NCCCN1CCOCC1
    3, -8%, 2%, 1, -2.7, 3
COc1ccc(-c2cn(CCO)c(CCN)n2)cc1
    -3, 7%, /, 1, -2.5, 1
Cc1ccc(NC(=O)CCN2CCN(C/C=C/c3ccccc3)CC2)cc1
    -21, 10%, 1%, -4, -1.9, -3
COc1ccc(CC(C)NS(=O)(=O)c2ccc3c(c2)CCN3S(C)(=O)=O)cc1OC (centres undefined)
    -2, 5%, 7%, 5, 5.7, -16
COCCN(CC1CCCN(C2Cc3ccccc3C2)C1)C(=O)CSC (centres undefined)
    -18, 5%, -12%, 7, -5.3, /
Cc1ccc(-c2nc(NCc3ccco3)n(C(=O)c3ccco3)n2)cc1
    -2, 0%, 3%[15.4 µM], 4, -0.7, -2
CC(=O)Nc1ccc(C2(O)COc3ccccc3O2)cc1 (centres undefined)
    -20, -18%, 1%, -1, -1.6, -4
O=C(CCOc1ccccc1)Nc1ccc(Cl)c(S(=O)(=O)N2CCOCC2)c1
    -5, -18%, ?, 0, 4.2, -1
Cc1ccc(CNC(=O)COc2ccc(S(=O)(=O)NC(C)C)cc2)cc1
    -11, 6%, -6%, 6, -1.4, 12
O=C(Cn1c(=O)[nH]c2ccccc2c1=O)N1CCN(Cc2ccc3c(c2)OCO3)CC1
    -21, -25%, 29%, 2, 0.9, -3
Cc1ccc(-c2nnc(SCC(=O)NNC(=O)COc3ccccc3C)n2C)cc1
    -7, -5%, -18%, -2, 0.4, 8
[O-][n+]1c2c(c3c4non(O)c4ccc31)CCCC2
    5, ?, -51%[inhibitor], -13, -0.7, -7
COc1cccc(NC(=O)NCCc2ccc(Cl)cc2)c1
    -10, -5%, -2%, -3, -2.9, 8
CC(C)N1CCC(C)(C(=O)Nc2cccc(Oc3ccccc3)c2)C1 (centres undefined)
    -6, /, /, -9, 0.8, -5
Cc1ccc(S(=O)(=O)N/N=C/c2cc(Br)c(C)o2)cc1
    -9, -9%, -29%, -6, 0.1, -1
COc1cc(OC)cc(C(=O)N2CCC(n3c(C)nc4cc(F)ccc43)CC2)c1
    7, -25%, -59%[inhibitor], -2, 0.6, 0
CN(C)c1cccc(C(=O)NCc2ccccc2)c1
    -14, 2%, 8%[15.4 µM], -7, -3.0, -15
O=C(Cc1cccs1)N(Cc1ccco1)C1(C(=O)NC2CCCCC2)CCCCC1
    -11, -10%, -29%, 3, -2.1, 1
CCCn1c(N)c(C(=O)CN(C)CC(=O)Nc2ccc(F)cc2)c(=O)[nH]c1=O
    -1, -2%, -26%, 0, 0.4, 3
COc1ccc([N+](=O)[O-])cc1NC(=S)NC(NC(=O)Cc1ccc(OC)c(OC)c1)C(Cl)(Cl)Cl (centres undefined)
    -27, -11%, -9%, ?, -4.1, ?
CC(C)(C)n1ncc2c(=O)n(CC(=O)NCc3ccccc3Cl)cnc21
    3, ?, ?, 3, -3.0, 4
CC(C)(C)OC(=O)N1CCC(NC(=O)c2nc[nH]c2C(=O)N2CCc3ccccc3C2)CC1
    -7, -3%, /, -6, -1.3, -10
COc1ccc2[nH]c(C(=O)N/N=C/c3ccc(O)cc3O)cc2c1
    -27, -20%, 13%, -80*, -4.7, /
C/C(=N\NC(=O)C1COc2ccccc2O1)c1ccc(C)o1 (centres undefined)
    -29, 5%, 13%, -3, -4.0, -12
OCC(O)C(O)CC1SCCS1 (centres undefined)
    -14, 2%, -16%, -2, -4.2, 4
CCOc1ccccc1NC(=O)COC(=O)C1CCC1
    -8, 4%, ?, -6, -1.9, -1
OCCC1CN(Cc2cccn2-c2ncccn2)CCN1C1CCCC1 (centres undefined)
    -5, 11%, 20%, -2, 1.3, /
O=C(NCc1ccncc1)c1ccc(S(=O)(=O)Nc2ccccc2)cc1
    -10, 26%, -40%[inhibitor], 1, 3.0, 6
O=C(CSc1n[nH]c(=O)n1C1CC1)c1ccc2c(c1)OCCO2
    -4, 3%, 22%, -1, 0.3, 2
CCCCn1c(N)c(N(CCC(C)C)C(=O)c2cccc(-n3cnnn3)c2)c(=O)[nH]c1=O
    -69, 4%, -4%[15.4 µM], 8, -2.9, 2
C1=CC2C3C=CC(C3)C2C1 (centres undefined)
    -6, 2%, /, -2, -4.3, 5
COc1ccccc1-n1nnnc1SC(C)C(=O)NC1CCCC1 (centres undefined)
    -16, -3%, -65%, 6, -7.0, 2
C/C(CC(=O)Nc1ccc(Cl)c(Cl)c1)=N\NC(=O)Cc1ccccc1
    -10, -2%, -14%, 0, -1.9, -5
O=C(O)c1cnc2ccccc2n1
    2, 14%, 17%, 16, -3.9, 22

# (more compounds)
# Values run as follows: D2 PAM, gsp antagonist, gsp ag, Six1-Eya2 inh, D2 ag, CtBP-E1A inh
Cc1nn(C)cc1S(=O)(=O)N1CCN(Cc2cccc(Cl)c2)CC1
    -11, 3%, 4%[15.4 µM], 2, -4.3, 5
NC(=O)C1=C(N)c2ccccc2C1c1ccccc1 (centres undefined)
    -15, -4%, 0%, -5, -5.3, 0
Cc1ccc(S(=O)(=O)NC(=S)NC2CCCCC2)cc1
    -19, -6%, 13%[15.4 µM], 20, -8.6, 15
COc1ccccc1N1CCN(/N=C/c2ccc(O)cc2O)CC1
    -1, -12%, ?, -9, 2.6, -8
CC(C)(C)OC(=O)N1CCC(C(=O)Nc2cccc(C(=O)NC3CC3)c2)CC1
    -15, -1%, /, 3, -1.2, 3
N#Cc1cccc(NC(=O)CSc2nnc(-c3n[nH]c4ccccc34)o2)c1
    -1, -28%, 12%, -26, 1.7, -87*
O=C1OC[C@H]2CCCN2C(=O)[C@@H](CC(=O)N(CCO)Cc2ccccc2)C/C=C\CC[C@@H]1Cc1ccc(F)cc1
    -9, ?, -31%[inhibitor], -9, -4.5, 7
Nc1nc2n(n1)C(c1ccc(Cl)cc1)CC(c1ccc(F)cc1)N2 (centres undefined)
    -4, -7%, -3%, -2, -1.5, 1
COc1ccc(/C(N)=N/OC(=O)/C=C/c2ccccc2)cc1
    22, 1%, 13%[15.4 µM], 30, 4.7, -7
Cc1cc(C)c(NC(=O)CNC(=O)COC(=O)CNC(=O)c2ccc(Cl)cc2Cl)c(C)c1
    -4, -11%, 7%[15.4 µM], 4, -3.8, 2
CC(C)(C)CC(=O)NCc1ccc(F)cc1
    -15, 9%, 7%, 3, -6.6, 0
Cc1cc(NC(=S)Nc2ccc(C)c(Cl)c2)n[nH]1
    -9, 0%, 2%[15.4 µM], -3, -7.6, -3
O=C1N[C@@H](Cc2ccccc2)C(=O)N2[C@H]1C[C@]1([C@]34C[C@H]5C(=O)N[C@@H](Cc6ccccc6)C(=O)N5[C@H]3N(S(=O)(=O)c3ccccc3)c3ccccc34)c3ccccc3N(S(=O)(=O)c3ccccc3)[C@H]21
    -11, 1%, /, -1, -4.3, 3
CC(C)C(Cl)=NOC(=O)Nc1ccc(S(N)(=O)=O)cc1
    0, 11%, 12%, 5, -4.6, 11
O=C1C(Cl)=C(Nc2ccc3cn[nH]c3c2)C(=O)c2ccccc21
    -9, ?, 4%[15.4 µM], 1, 6.5, -26
CCC(=O)Oc1ccc(C(=O)Nc2ccc([N+](=O)[O-])cc2)cc1
    -11, 9%, -61%[inhibitor], -9, -1.8, -4
CCn1c(Cc2ccc(OC)cc2)nnc1SCC(=O)NC1CCCCC1
    1, 3%, 0%, -7, -2.7, 4
COc1ccc(C2N(C(=O)CN3CCOCC3)CCN2S(=O)(=O)c2ccccc2)cc1 (centres undefined)
    -11, 9%, 16%, 4, -1.0, 5
O=C(N1CCCCC1)N1CCN(C(c2ccccc2)c2ccccc2)CC1
    -12, -14%, -34%[inhibitor], 11, 0.4, -2
COc1ccc(NS(=O)(=O)c2cc(NC(=O)c3cccnc3Cl)ccc2N2CCCC2)cc1
    -9, -12%, ?, -12, 0.8, -2
O=C1N/C(=N/O)S/C1=C/c1cccc([N+](=O)[O-])c1
    -7, ?, 8%[15.4 µM], -6, -8.3, -18
O=C(O)c1cccc(S(=O)(=O)NCCc2ccccc2)c1
    -5, 10%, 1%[15.4 µM], -4, 3.5, /
COc1ccccc1N1CCN(C(=O)CSc2nc3ccccc3nc2N2CCCCC2)CC1
    -1, -22%, -14%, -7, -0.7, -2
O=C(O)c1cnn(-c2nc(-c3ccc(F)cc3)cs2)c1C(F)(F)F
    -2, -8%, ?, 7, -0.1, 4

# Complete entries, quoted from the list. Order of values: D2 PAM	gsp antagonist	gsp ag	Six1-Eya2 inh	D2 ag	CtBP-E1A inh
# O=C(O)c1cccc(S(=O)(=O)NCCc2ccccc2)c1 as listed: -5	10%	1%[15.4 µM]	-4	3.5	/
# O=C(O)c1cnn(-c2nc(-c3ccc(F)cc3)cs2)c1C(F)(F)F as listed: -2	-8%	?	7	-0.1	4
# O=C1N/C(=N/O)S/C1=C/c1cccc([N+](=O)[O-])c1 as listed: -7	?	8%[15.4 µM]	-6	-8.3	-18

# Screens (PubChem)
